Screening results from PubChem.
Prx2 Sm inh: Schistosoma mansoni Prx2 inhibition; Potency, µM; 65,000 tested, 0.07% active; AID 448; S. mansoni Prx2 activity coupled to TGR/GSH (TGR is thioredoxin glutathione reductase), NADPH fluorescence loss, qHTS; some inactives read as strong as hits; active means full or partial inhibition curve with a strong effect at the top dose; inconclusive means weaker partial or single-point curve; inactive means no accepted curve; further: series up to 57 µM; many of its hits are not listed in these tables
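Purified S. mansoni TGR and Prx2 in pH 7.4 phosphate buffer with EDTA and Tween-20 were preincubated with compounds for 15 min. Further NADPH/GSH was added, then a 2.5 mM H2O2 aliquot initiated turnover, followed kinetically by NADPH fluorescence.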
Anthrax LT inh: anthrax lethal toxin internalization inhibition | Potency, µM (titrated, usually from 40 µM), without a hit: at the highest dose activity change, negative = inhibition, hits mostly inhibitors | Cells, anthrax lethal toxin internalization, FRET ratio (460/530) | 70,000 tested, 0.67% active; active = well fitted falling ratio curve with the 530 nm signal flat; inconclusive = other ratio curves, or a change in one channel alone; inactive = flat curves in the ratio and both channels; the % refers to the ratio; further: on the % scale 0 is the no-effect control and ±100 the full control effect; nearly all actives have a fitted effect of over 50% in size; tested in ME-180 cells; beta-lactamase reporter
* marks the source's active call; other numbers are inactive results; [ ] = remark or other dose. Potency means the concentration at half of the fitted maximal effect. Some of the compounds tested. The share of hits here may be higher or lower than overall.

Results for COc1ccc(Cl)c(Cn2c(NCC(C)O)nc3c2c(=O)n(C)c(=O)n3C)c1 (stereo not given) ?
Prx2 Sm inh: >57; Anthrax LT inh: 20%

How did COc1cc(-n2c(=O)c3ccccc3n(Cc3cccnc3)c2=O)cc(OC)c1OC do in these assays?
Prx2 Sm inh: >57; Anthrax LT inh: 3%

What do the screens show for `Cn1c(-c2ccc(F)cc2)cnc1SCC(=O)NCc1ccco1`?
Prx2 Sm inh: >57; Anthrax LT inh: inconclusive

Results for O[C@@H](Cc1ccncc1)C(Cl)(Cl)Cl ?
Prx2 Sm inh: >57; Anthrax LT inh: -9%

What do the screens show for `COC(=O)c1ccc(C(=O)OC)c(NC(=O)COc2ccccc2OC)c1`?
Prx2 Sm inh: >57; Anthrax LT inh: -10%

How did CCn1c(NCCc2ccc(OC)c(OC)c2)nc2c1c(=O)n(C)c(=O)n2C do in these assays?
Prx2 Sm inh: >57; Anthrax LT inh: -9%

How did O=C(Nc1ccc(Cl)cc1)c1ccsn1 do in these assays?
Prx2 Sm inh: >57; Anthrax LT inh: inconclusive

What do the screens show for `Cn1c(=O)n(Cc2ccccc2)c(=O)c2c1nc1n2CCCN1Cc1ccccc1`?
Prx2 Sm inh: >57; Anthrax LT inh: -14%

How did O=C(Nc1ccc(N2CCN(C(=O)c3ccccc3)CC2)c(Cl)c1)c1ccco1 do in these assays?
Prx2 Sm inh: >57; Anthrax LT inh: inconclusive

Results for CCC/C(O)=C1\C(=O)CC(C)(C)CC1=NCCO ?
Anthrax LT inh: 7%

How did CC(=O)c1cccc(NC(=O)C2CCCCC2)c1 do in these assays?
Anthrax LT inh: -10%

How did O=C(C1CC1)N1CCc2cc(Br)cc(S(=O)(=O)NCc3ccc4c(c3)OCO4)c21 do in these assays?
Prx2 Sm inh: >57; Anthrax LT inh: -24%

Results for Cc1ccc2[nH]c(=O)c(CN(Cc3ccco3)C(=O)c3ccncc3)cc2c1 ?
Prx2 Sm inh: >57; Anthrax LT inh: -12%

What do the screens show for `Cn1cnc([N+](=O)[O-])c1[Se]c1nc(N)nc2c1ncn2[C@@H]1O[C@@H](CO)[C@H](O)[C@@H]1O`?
Prx2 Sm inh: >57; Anthrax LT inh: -7%[8 µM]

How did CC(C)(C)C(=O)OCCn1c(=O)c2cc3c(=O)n(CCOC(=O)C(C)(C)C)c(=O)c3cc2c1=O do in these assays?
Prx2 Sm inh: >57; Anthrax LT inh: inconclusive

How did CCCCCCN1CC(O)=C(c2nc3ccccc3[nH]2)C1=N do in these assays?
Prx2 Sm inh: >57; Anthrax LT inh: -14%

Results for C[C@@H](C(=O)Nc1ccc2ccccc2c1)[C@@H]1C[C@@]1(C)[C@@H](NS(=O)(=O)c1ccc2ccccc2c1)c1ccccc1 ?
Prx2 Sm inh: >57; Anthrax LT inh: inconclusive

How did CC(=O)Nc1ccc2oc(-c3cc(F)c(F)cc3Cl)nc2c1 do in these assays?
Prx2 Sm inh: >57; Anthrax LT inh: 0%

What do the screens show for `CCOc1ccccc1N1CCN(Cc2ccc(OC)c(OC)c2)CC1`?
Prx2 Sm inh: >57; Anthrax LT inh: -15%

What do the screens show for `CC(C)CN(C(=O)COC(=O)c1ccc2c(c1)NC(=O)CS2)C1CCS(=O)(=O)C1` (stereo not given)?
Prx2 Sm inh: >57; Anthrax LT inh: 1%

What do the screens show for `Cc1cc(C)n(CCOC(=O)c2sc3ccccc3c2Cl)n1`?
Prx2 Sm inh: >57; Anthrax LT inh: inconclusive

What do the screens show for `CCCC(=O)Nc1ccc(C(=O)n2nnc3ccccc32)cc1`?
Prx2 Sm inh: >57; Anthrax LT inh: 3%

How did CCc1nnc(NC(=O)Cn2nnc(-c3ccccc3F)n2)s1 do in these assays?
Prx2 Sm inh: >57; Anthrax LT inh: -16%

How did O=S(=O)(c1cccs1)N1CCC(Cc2ccccc2)CC1 do in these assays?
Prx2 Sm inh: >57; Anthrax LT inh: -6%

What do the screens show for `CCc1nnc(NC(=O)CSc2nnc(COc3ccccc3C)o2)s1`?
Prx2 Sm inh: >57; Anthrax LT inh: -2%

What do the screens show for `CCOc1ccc(S(=O)(=O)N2CCC(C(N)=O)CC2)c2ccccc12`?
Prx2 Sm inh: >57; Anthrax LT inh: -5%

Results for COc1ccccc1CNC(=O)CNC(=O)Cn1cnc2ccccc2c1=O ?
Prx2 Sm inh: >57; Anthrax LT inh: 14%

How did CCOc1ccc(-c2nnn(CC(=O)N3CCN(c4ccc(F)cc4)CC3)n2)cc1OCC do in these assays?
Prx2 Sm inh: >57; Anthrax LT inh: -13%

What do the screens show for `CCN=C1SC(C(=O)Nc2cccc(OCC)c2)CC(=O)N1CC` (stereo not given)?
Prx2 Sm inh: >57; Anthrax LT inh: -5%

Results for Cc1cc(=O)[nH]c2n[nH]c(-c3ccccc3)c12 ?
Prx2 Sm inh: >57; Anthrax LT inh: 4%

How did COc1cc(C(=O)Nc2c(C)cc(C)cc2C)c(-n2cnnn2)cc1OC do in these assays?
Prx2 Sm inh: >57; Anthrax LT inh: 2%

What do the screens show for `Cc1cc(OCC(=O)O)c2ccccc2n1`?
Prx2 Sm inh: >57; Anthrax LT inh: 6%

How did CCOC(=O)C[C@@H](CC(C)=O)C(=O)OCC do in these assays?
Anthrax LT inh: 0%[8 µM]

How did Oc1ccc2c3c1O[C@@H]1c4[nH]c5c(c4C[C@@]4(O)[C@@H](C2)N(CC2CC2)CC[C@]314)C[C@]1(O)[C@@H]2Cc3ccc(O)c4c3[C@@]1(CCN2CC1CC1)[C@H]5O4 do in these assays?
Prx2 Sm inh: >57; Anthrax LT inh: -2%

What do the screens show for `COC(=O)C1=C2SC(C)C(=O)N2C(N)=C(C#N)C1c1ccc(OC)c(OC)c1` (stereo not given)?
Prx2 Sm inh: >57; Anthrax LT inh: -14%

What do the screens show for `CCN(CC)N=O`?
Anthrax LT inh: inconclusive

Results for Cc1ccc(C)c(N2CCN(C(=O)CCc3nc4ccccc4[nH]3)CC2)c1 ?
Prx2 Sm inh: >57; Anthrax LT inh: -13%

What do the screens show for `C=CCc1ccccc1OCC(O)CN1CCN(C(=O)OCC)CC1` (stereo not given)?
Prx2 Sm inh: >57; Anthrax LT inh: 4%

Results for CCOCC(=O)Nc1nnc(COCC)s1 ?
Prx2 Sm inh: >57; Anthrax LT inh: -2%

What do the screens show for `Cc1cccc(-n2c(-c3ccco3)nc3ccccc3c2=O)n1`?
Prx2 Sm inh: >57; Anthrax LT inh: -1%

An excerpt of the results above, as a working copy:
Results for Cc1ccc(C)c(N2CCN(C(=O)CCc3nc4ccccc4[nH]3)CC2)c1 ?
Prx2 Sm inh: >57; Anthrax LT inh: -13%

What do the screens show for `C=CCc1ccccc1OCC(O)CN1CCN(C(=O)OCC)CC1` (stereo not given)?
Prx2 Sm inh: >57; Anthrax LT inh: 4%

Results for CCOCC(=O)Nc1nnc(COCC)s1 ?
Prx2 Sm inh: >57; Anthrax LT inh: -2%

What do the screens show for `Cc1cccc(-n2c(-c3ccco3)nc3ccccc3c2=O)n1`?
Prx2 Sm inh: >57; Anthrax LT inh: -1%

(list continues)
What do the screens show for `COc1ccc2nc(N3CCC(O)CC3)c(C#N)cc2c1`?
Prx2 Sm inh: >57; Anthrax LT inh: inconclusive

What do the screens show for `Cc1ccccc1-c1nc(CN2CCC(C(=O)NCc3cccnc3)CC2)c(C)o1`?
Prx2 Sm inh: >57; Anthrax LT inh: -15%

What do the screens show for `Cc1ccc(Nc2nnns2)cc1C`?
Prx2 Sm inh: >57; Anthrax LT inh: -2%

What do the screens show for `COc1cc(NS(=O)(=O)c2ccc(NC(=O)NC3CCCCC3)cc2)nc(OC)n1`?
Prx2 Sm inh: >57; Anthrax LT inh: 3%

What do the screens show for `O=C(O)c1cc(S(=O)(=O)Nc2ccccc2C(=O)O)ccc1O`?
Prx2 Sm inh: >57; Anthrax LT inh: -10%

Results for COc1ccc(-c2nc3ccccc3c(=O)n2CCN2CCOCC2)cc1 ?
Prx2 Sm inh: >57; Anthrax LT inh: 12%

Results for Cc1c(C(=O)NCc2ccccc2)oc2c1C(=O)CCC2 ?
Prx2 Sm inh: >57; Anthrax LT inh: -9%

What do the screens show for `COc1ccc(Cl)cc1N(CC(=O)N1CCC(C)CC1)S(C)(=O)=O`?
Anthrax LT inh: 0%

How did CC1(C)OC(=O)C(=CNC(Cc2c[nH]c3ccccc23)C(=O)O)C(=O)O1 (stereo not given) do in these assays?
Prx2 Sm inh: >57; Anthrax LT inh: 10%

What do the screens show for `C=CCc1cccc(C2NC(C(=O)O)CCC2C)c1` (stereo not given)?
Anthrax LT inh: -22%[8 µM]

How did Cc1ccc(NC(=O)c2ccccc2C(=O)O)cc1C do in these assays?
Prx2 Sm inh: >57; Anthrax LT inh: inconclusive

How did Clc1ccc(C(c2ccccc2Cl)C(Cl)(Cl)Cl)cc1 (stereo not given) do in these assays?
Anthrax LT inh: inconclusive

Results for COc1ccc(C(=O)Nn2cnc3scc(-c4cccs4)c3c2=O)c(O)c1 ?
Prx2 Sm inh: >57; Anthrax LT inh: -13%

What do the screens show for `O[C@@H]([C@H](O)[C@@H](O)CBr)[C@@H](O)CBr`?
Anthrax LT inh: 1%

Results for O=C(c1cccc(F)c1)N1CCC[C@@]2(CCN(c3ccccn3)C2)C1 ?
Prx2 Sm inh: >57; Anthrax LT inh: -2%

Results for COc1ccc(C(=O)N2CCN(C(=O)c3cc(OC)c(OC)c(OC)c3)CC2)cc1 ?
Prx2 Sm inh: >57; Anthrax LT inh: inconclusive

How did C=C(Cl)Cl do in these assays?
Anthrax LT inh: 4%

How did CCOc1cc2[nH]c(=S)n(CCCOC)c(=O)c2cc1OCC do in these assays?
Prx2 Sm inh: >57; Anthrax LT inh: 7%

What do the screens show for `O=C1CC(c2cccc(Cl)c2)Cc2nc(N3CCOCC3)ncc21` (stereo not given)?
Prx2 Sm inh: >57; Anthrax LT inh: -1%

How did O=C(CN1CCN(Cc2ccc(F)cc2)C1=O)NCc1cccs1 do in these assays?
Prx2 Sm inh: >57; Anthrax LT inh: -9%

What do the screens show for `C=CCn1cc(C(=O)NCCCOC)c(=O)c2cc(S(=O)(=O)N3CCC(C)CC3)ccc21`?
Prx2 Sm inh: >57; Anthrax LT inh: -2%

How did CC(=O)OCc1ccc2c(c1)OCO2 do in these assays?
Anthrax LT inh: -1%

What do the screens show for `O=C(Oc1cccc2cccnc12)c1ccc2c(c1)OCCO2`?
Prx2 Sm inh: >57; Anthrax LT inh: inconclusive

How did CS(=O)(=O)N1CCN(c2ccc(NC(=O)c3ccc(Br)o3)cc2)CC1 do in these assays?
Prx2 Sm inh: >57; Anthrax LT inh: -4%

Results for Nn1cnn(Cc2ccccc2)c1=S ?
Prx2 Sm inh: >57; Anthrax LT inh: inconclusive

What do the screens show for `Cc1cc(C)c2nc(N3CCCC3)c(C#N)cc2c1`?
Prx2 Sm inh: >57; Anthrax LT inh: inconclusive

Results for COC(=O)c1cc(OC)c(OC)cc1NC(=O)Nc1ccccc1OC ?
Prx2 Sm inh: >57; Anthrax LT inh: 3%

Results for COc1ccc(NS(=O)(=O)c2c(C)n(C)c(=O)n(C)c2=O)cc1OC ?
Prx2 Sm inh: >57; Anthrax LT inh: 10%

What do the screens show for `CCNc1nc(SCc2ccccc2)nc(N2CCOCC2)n1`?
Prx2 Sm inh: >57; Anthrax LT inh: -19%

How did Cc1cnnc2c1-c1no[n+]([O-])c1CC2 do in these assays?
Prx2 Sm inh: >57

Results for CCn1nc(NC(=O)c2ccco2)c2cc3ccc(C)cc3nc21 ?
Prx2 Sm inh: >57; Anthrax LT inh: inconclusive

Results for CN(C)CCN1C(=O)C(=O)/C(=C(/O)c2ccc(OCc3ccccc3)cc2)C1c1ccncc1 (stereo not given) ?
Prx2 Sm inh: >57; Anthrax LT inh: 2%

How did COc1ccc(C(=O)NC(C)c2nc3ccccc3n2C)cc1OC (stereo not given) do in these assays?
Prx2 Sm inh: >57; Anthrax LT inh: 1%

What do the screens show for `Cc1cc(Nc2cc(C(=O)O)ccc2C)n2ncnc2n1`?
Prx2 Sm inh: >57; Anthrax LT inh: 1%

Results for COc1ccc(-n2c(Cc3cccn3C)nnc2SCC(=O)Nc2ccc(C)cc2)cc1 ?
Prx2 Sm inh: >57; Anthrax LT inh: -11%

Results for COc1ccc(C(=O)N2CCC[C@@]3(CCN(Cc4ccccc4)C3)C2)cc1 ?
Prx2 Sm inh: >57; Anthrax LT inh: inconclusive

Results for C=CCn1c(=N)n(CC(=O)OCC)c2ccccc21 ?
Prx2 Sm inh: >57; Anthrax LT inh: 1%

What do the screens show for `CCOC(=O)c1ccc(CSc2nncn2N)o1`?
Anthrax LT inh: 22%

How did C=C(C)COc1ccc2c3c(c(=O)oc2c1OCC(=C)C)CCC3 do in these assays?
Prx2 Sm inh: >57; Anthrax LT inh: -23%

How did COc1ccc(CCN2C(=O)CC(NCc3ccc4c(c3)OCO4)C2=O)cc1OC (stereo not given) do in these assays?
Prx2 Sm inh: >57; Anthrax LT inh: -13%

Results for CN(C)CP(=O)(O)CN(C)C=O ?
Prx2 Sm inh: >57; Anthrax LT inh: -11%

How did O=C(NC1CCCCC1)N1CCC(c2nc3ccc(Cl)cc3[nH]2)CC1 do in these assays?
Prx2 Sm inh: >57; Anthrax LT inh: 8%

What do the screens show for `CCOc1ccc(-c2cc(C(=O)N3CCN(c4ccccn4)CC3)c3ccccc3n2)cc1`?
Prx2 Sm inh: >57; Anthrax LT inh: -14%
